Screens (PubChem BioAssay)
NPYLR7 agonist: agonists of mosquito NPYLR7 receptor, primary screen, cell-based, Aedes aegypti, calcium fluorescence, mosquito biting behavior; Aedes aegypti neuropeptide Y-like receptor 7 (NPYLR7); HEK293T NPYLR7/Galpha15, GCaMP6s calcium fluorescence; activation, % at 10 µM; 270,000 tested, 0.15% active; AID 1259423, 2018; in the data active = activation above about 40%;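 also: 0% = vehicle and 100% = reference agonist at the receptor; some compounds past the cut are filed as inactive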
NPYLR7 agonist max-min: also measured in NPYLR7 agonist; calls as there; activation, %; measured here: Max-Min RFU normalised activation; some inactives read as strong as hits;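 span of the calcium signal over five minutes; 0% = vehicle and 100% = native peptide agonist; compound fluorescence can raise it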
* = called active by the depositor; & = joins results of further samples. Some of the compounds tested, so the mix of outcomes need not match the whole.

compound	NPYLR7 agonist	NPYLR7 agonist max-min
CCN1CCCC1CN(CC1CCN(CCOC)CC1)C(=O)c1ccc2cc[nH]c2c1 (stereo not drawn)	16	0
COc1ccc(CCN(C)c2cc(-c3ccccc3)nc(SCc3cccc(C(=O)NC4CC4)c3)n2)cc1OC	-11	-11
COCCn1cc(NC(=O)N2CCC(C)CC2)c2ccccc21	11	4
COc1ccccc1Cn1c(C(=O)N2CCN(C(=O)C(Cl)c3ccccc3)C(C)C2)cc2ccsc21 (stereo not drawn)	-2	4
CC(C)CC(=O)Nn1cnc2c(cnn2C(C)(C)C)c1=O	2	-2
COCCCN(CC(=O)NCC(=O)Nc1ccc(C)cc1)C(=O)c1cccc([N+](=O)[O-])c1	2	10
C=C(C)COc1cccc(C(=O)N2CCCn3cncc3C2)c1	-4	-5
Cc1ccc(S(=O)(=O)NCC(c2ccc3c(c2)CCN3C)N2CCN(C)CC2)s1 (stereo not drawn)	-4	-4
c1ccc(COc2ccccc2CN2CCC3(CCNCC3)C2)cc1	13	8
CCOc1ccc(OCC)c(CC(C#N)C(=O)OC)c1 (stereo not drawn)	-1	-2
COc1ccc(OC)c(C2CC(c3ccccc3)=NN2C(=O)CN2CCc3ccccc3C2)c1 (stereo not drawn)	-6	0
COc1ccc2nc(N(CCCN(C)C)C(=O)c3cc(C)n(C)n3)sc2c1	12	10
Cc1ccc(OCc2nc3ccccc3c3ccccc23)c([N+](=O)[O-])n1	0	17
CC(=O)NC(C)C1CC2CCC1C2 (stereo not drawn)	3	2
CC1(C(=O)NCCC#N)CCN1C(=O)c1ccccc1CCc1ccccc1 (stereo not drawn)	15	13
Cn1nnc2c(Nc3ccc(Br)cc3)ncnc21	11	3

Structural class: the entries above with a nitro group on carbon (2)
compound	NPYLR7 agonist	NPYLR7 agonist max-min
COCCCN(CC(=O)NCC(=O)Nc1ccc(C)cc1)C(=O)c1cccc([N+](=O)[O-])c1	2	10
Cc1ccc(OCc2nc3ccccc3c3ccccc23)c([N+](=O)[O-])n1	0	17

Continued.
compound	NPYLR7 agonist	NPYLR7 agonist max-min
O=S(=O)(NC1CCCC1n1ccnc1)c1ccc2c(c1)CCCC2 (stereo not drawn)	7	6
OCC#CC(O)c1sc(Cl)c(Cl)c1Cl (stereo not drawn)	8	6
Cc1cccc(-n2c(SCC(=O)c3ccccc3)nc3ccccc3c2=O)n1	-2	-7
Cc1cc(O)c(CN2CCCN(C(=O)c3ccccn3)CC2)cc1C	10	8
CCc1nn2c(=O)cc(Cn3nc(-c4ccc(F)cc4)oc3=O)nc2s1	6	3
Cc1ccc(Cl)cc1-n1c(SCc2ccccc2)nnc1C(C)N (stereo not drawn)	-10	-20
CCc1ccc(-c2c(-c3ccccc3)ncn2CC(O)c2cccnc2)o1 (stereo not drawn)	-7	-13
COc1cc(OC)cc(C(=O)NCCN(C(C)C)C(C)C)c1	0	-4

Compound profiles, as listed above. Order of screens: NPYLR7 agonist	NPYLR7 agonist max-min
Shown for O=S(=O)(NC1CCCC1n1ccnc1)c1ccc2c(c1)CCCC2 (stereo not drawn) : 7	6
Shown for Cc1cc(O)c(CN2CCCN(C(=O)c3ccccn3)CC2)cc1C : 10	8

Other results follow:
compound	NPYLR7 agonist	NPYLR7 agonist max-min
Cc1ccc(-n2nnc3c(SCC(=O)NCCc4ccccc4)ncnc32)cc1	4	31
CCc1nc2ccc(C(=O)NCc3ccc(OC)cc3)cn2c1N(C)C(=O)C1CCCCC1	-8	-15
c1ccc2[nH]c(SCSc3nc4ccccc4[nH]3)nc2c1	11	5
Cc1ccccc1-c1ncc(CN(Cc2nccn2C)C2CC2)s1	-3	-8
CCOc1ccccc1CN1C(=O)C(O)(CC(C)=O)c2cc(C)cc(C)c21 (stereo not drawn)	8	10
CC(=O)NC1=NN(C(C)=O)C2(S1)C(=O)N(CCOc1ccccc1)c1ccc(Cl)cc12 (stereo not drawn)	0	-1
COc1ccc(CCN(Cc2cccs2)C(=O)CN(C(=O)Nc2c(C(C)C)cccc2C(C)C)C2CC2)cc1OC	8	13
CSc1nc2ncc3c(=O)n(-c4ccc(F)c(Cl)c4)ccc3n2n1	3	8

Random excerpt: four compounds from above.
compound	NPYLR7 agonist	NPYLR7 agonist max-min
COc1ccc(CCN(Cc2cccs2)C(=O)CN(C(=O)Nc2c(C(C)C)cccc2C(C)C)C2CC2)cc1OC	8	13
CC(=O)NC1=NN(C(C)=O)C2(S1)C(=O)N(CCOc1ccccc1)c1ccc(Cl)cc12 (stereo not drawn)	0	-1
CSc1nc2ncc3c(=O)n(-c4ccc(F)c(Cl)c4)ccc3n2n1	3	8
Cc1ccccc1-c1ncc(CN(Cc2nccn2C)C2CC2)s1	-3	-8

(cont.)
compound	NPYLR7 agonist	NPYLR7 agonist max-min
CCCSc1nnc(-c2cn(C)nc2OC)n1C	1	2
O=C(NCCc1ccccn1)c1ccc2nc(-c3ccccc3)c(-c3ccccc3)nc2c1	-9	-14
O=S1(=O)c2cccc3cccc(c23)N1Cc1ccc(-c2nn[nH]n2)cc1	-1	-2
Cc1cnn(Cc2ccc(Cl)cc2)c1NC(=O)c1ccnn1C(F)F	6	-8
CC(C)Nc1ccc(Cl)cc1	-3	-5
CCN(Cc1ccc(N(C)C)cc1)CC(O)CO (stereo not drawn)	-3	-8
CCC1(C)Cc2c(c(N3CCOCC3)[nH]c(=S)c2C#N)CO1 (stereo not drawn)	-4	-3
CN1CCN(C(CNS(=O)(=O)c2ccccc2Cl)c2cccn2C)CC1 (stereo not drawn)	11	7
CC(C)(CCC#N)CNC1CCN(c2ncccc2Cl)C1 (stereo not drawn)	-1	-2
O=C(COc1ccc2c(c1)CCC2)N1CCN(S(=O)(=O)Cc2ccccc2)CC1	-8	-3
COc1ccc(OC)c(C2c3cccn3CCN2C(=O)Nc2cccs2)c1 (stereo not drawn)	11	5
CCN1CCCC1CNC(=O)CCC1CCN(Cc2cnn(CC)c2)CC1 (stereo not drawn)	10	4
COC(=O)c1ccc2oc(=O)n(C3CCN(C(=O)c4oc5ccccc5c4C)CC3)c2c1	23	15
CCCCN(Cc1ccco1)C(=O)c1cnc(CC)nc1	-1	-6
Cc1cc(OCc2ccon2)c(C(C)C)cc1-n1cnnn1	-1	6
CCc1cc(N2CCCC2)nc(SCc2ccc(C(=O)N3CCN(C(C)=O)CC3)cc2)n1	4	12

The listing continues.
Second line of a record – NPYLR7 agonist, NPYLR7 agonist max-min
O=S1(=O)N=C(N/N=C\c2ccccc2O)c2ccccc21
  7, 6
CCOC(=O)c1c(C)n(CC)c2c1cc(O)c1ccccc12
  0, 1
COc1ccc(C)cc1-n1cc(C(=O)O)ccc1=O
  -6, 946
C=CCNC(CC(=O)Nc1ccc(C)cc1C)C(=O)O (stereo not drawn)
  -1, 0
Cn1ccnc1CN1CCC(c2cc(Cc3ccccc3)[nH]n2)CC1
  -2, -4
O=C(CSc1nc2c(c(=O)n1-c1ccccc1)SCC2)Nc1ccc([N+](=O)[O-])cc1
  4, 0
Cc1cc(C)nc(NC(=O)c2ccc(C3CCCN3C3CCOCC3)s2)c1 (stereo not drawn)
  1, 0
CCCCC(O)CN(Cc1c(C)nn(-c2ccccc2)c1Oc1ccccc1Cl)CC1CCCO1 (stereo not drawn)
  19, 15
CCc1nc2c(OCCc3cccc(OC)c3)cccn2c1N(C=O)CC(=O)N(C)C
  9, -5
CCOC(=O)C1(Cc2cccc(OC)c2)CCCN(Cc2cccc3c2OCO3)C1 (stereo not drawn)
  -8, -7
c1ccc(N2CCCN(Cc3ccc(-n4ccnc4)cc3)CC2)cc1
  1, 1
Cc1ccc(-n2c(SCc3ccccc3C)nnc2C(C)NC(=O)Nc2c(C(C)C)cccc2C(C)C)cc1 (stereo not drawn)
  27, 25
CCSc1ncccc1C(=O)N1CCN(c2ccc(NC(=O)c3ccco3)cn2)CC1
  3, -8
CCCn1c(SCCC(=O)O)nc2ccccc21
  -11, -17
O=C(NC(c1ccccc1)c1cccs1)C12CC3CC(CC(Cl)(C3)C1)C2 (stereo not drawn)
  0, -4
CCCN(C)c1nc(SCc2ccc(C(=O)NCCN3CCOCC3)cc2)nc(C)c1C
  -10, 4
CCc1nc2c(OCCn3cccc3)cccn2c1N(C=O)CC(=O)N(C)C
  10, -5
CCOC(=O)c1cc2c3ccccc3n(C)c2nc1N1CC(C)OC(C)C1 (stereo not drawn)
  -3, -2
COc1ccc2c(c1)CCCC21NC(=O)N(CC(O)COc2cccc(C)c2)C1=O (stereo not drawn)
  -3, 2
CC(CC(=O)NC(C)c1ncn[nH]1)c1ccccc1F (stereo not drawn)
  5, 2
COCCOCC(=O)N1CCN(C(c2ccc(F)cc2)c2ccc(F)cc2)CC1
  -3, -9
NC(=O)c1ccccc1NC(=O)CN1CCN(CCc2ccccc2)CC1
  1, -4
CCc1cc(-c2cccc3ccnn23)ccc1NC(C)=O
  19, 8
COc1ccc(C2c3cccn3CCCN2Cc2cc(C)ccc2O)cc1 (stereo not drawn)
  2, 10
CC1CN(C(C)(C)CNC(=O)NC2CCCCCCC2)CC(C)O1 (stereo not drawn)
  6, 2
CN(CC(=O)Nc1ccc(N2CCOCC2)cc1)C(=O)COc1ccccc1C#N
  1, 0
CNc1nc2cnc(-c3cccc(CO)c3)cc2n1-c1ccccc1
  7, -5
CC1(C)NC(=O)N(CCCCOc2ccc(Br)cc2Cl)C1=O
  8, 7
Cc1nc(-n2cccc2)sc1C(=O)N1CCN(C2CCCCC2)CC1
  -2, -5
COc1cccc(C2CC(c3ccccc3)=NN2c2ccccc2)c1 (stereo not drawn)
  -7, -12
CCCCNC(=O)C1(C)CCN1C(=O)c1ccc(F)cc1Cl (stereo not drawn)
  0, -3
CC(CNC(=O)CCNC(=O)c1ccccc1F)n1cncn1 (stereo not drawn)
  -1, -7
CCN(C(=O)c1sc(-c2ccc(C(F)(F)F)cc2)nc1C)C1CCS(=O)(=O)C1 (stereo not drawn)
  -1, -2
NC(=O)CN1CCN(c2ccccc2)C1=O
  -2, -5
Cc1cc(C)n(CC(C)NC(=O)N(C)CCC2CCCCC2)n1 (stereo not drawn)
  2, 1
N#Cc1cccc(C=C2N=C(c3ccc(F)cc3)OC2=O)c1
  -1, 5
CCc1nc(C)c(C(=O)Nc2ccc(CCC(F)(F)F)cc2)s1
  3, -11
Cn1c(=O)c2cc(NC(=O)CCc3cccnc3)ccc2n1Cc1cccc(C(F)(F)F)c1
  3, 0
COc1ccc(CNC(=O)c2ccc(Br)cn2)cc1
  1, 0
COc1ccc(-n2cc(-c3ccccc3)c3c(N4CC(C)OC(C)C4)ncnc32)cc1 (stereo not drawn)
  -2, -3
CN(Cc1ccccc1F)c1nc(N2CCCC2)nc(N2CCCC2)n1
  4, 4
COc1ccc(-c2cc(N3CCCC3)nc(N)n2)c(OC)c1
  -1, 5
Cc1nn(CC(=O)N2CCCC2)c(=O)c2c1cnn2-c1ccccc1
  7, 4
O=S(=O)(c1ccc(Cl)cc1Cl)N1CCN(c2c(-c3ccccc3)cnc3ncnn23)CC1
  -5, -5
CCOc1ccc(C2CC(c3cc(C)ccc3C)=NN2C(=O)CN2CCCCC2C)cc1 (stereo not drawn)
  1, 3
Cc1cc2ccccc2n1CCC(=O)N1CCC2(CC1)CNC(=O)C2
  9, 6
Cc1nc(C(=O)N(CC(=O)Nc2ccc(F)cc2)C(C)C)cs1
  8, 2
CC(C)NC(=O)Cn1c(CO)cnc1SCC(=O)Nc1ccc(C(N)=O)cc1
  10, 5
COc1cc(C(=O)Nn2cnc3c(cnn3-c3ccccc3)c2=O)cc(OC)c1OC
  -1, -3
Cc1ccccc1-c1nc(OCC(C)C)nn1-c1ccc(NC(=O)Cc2cccs2)cc1
  27, 21
O=C(COc1cccc(Cl)c1Cl)NC(=O)NC1CC1
  -3, -3
CC1CCN(c2ccc(NC(=O)Nc3cccc(F)c3)cc2C(=O)NC(C)c2ccccc2)CC1 (stereo not drawn)
  18, 17
Cc1nonc1C1CCCN1C(=O)CCCn1cnc2ccccc2c1=O (stereo not drawn)
  16, 6
CCCCC1CCC(c2nc(-c3ccncc3)no2)CC1 (stereo not drawn)
  -8, -14
Clc1ccc2nc(-c3ccc4c(c3)OCO4)c(NC3CCCCC3)n2c1
  -4&14, -2&18
COc1ccc(NC(=O)N2CC[C@H]3CC(=O)N(CCN4CCNC4=O)CC[C@H]3C2)cc1
  -9, -16
CN(C)c1ccc(NC(=O)C2CSc3ccccc3O2)nc1 (stereo not drawn)
  10, 7
Cc1ccc(Cc2nsc(N3CCN(C(=O)c4cccc(Br)c4)C(C)C3)n2)cc1 (stereo not drawn)
  3, 13
Cc1ccc(NC(=O)C2(C)CCN2C(=O)Cc2ccc(C(C)C)cc2)cc1 (stereo not drawn)
  9, 9
O=C(CCN1CCNCC1)NC[C@@H]1CCNC[C@H]1O
  -3, -8

More records follow:
Second line of a record – NPYLR7 agonist, NPYLR7 agonist max-min
Fc1ccc(-c2cc(C(F)(F)F)nc(NCc3cccnc3)n2)cc1
  -2, -2
O=C(Cc1c(F)cccc1Cl)Nc1cc(C(=O)Nc2ccc(Cl)cc2)ccc1N1CC2CC(C1)c1cccc(=O)n1C2 (stereo not drawn)
  -6, -1
CC(=O)NC1C(Oc2ccc(C(C)(C)C)cc2)OC(CO)C(O)C1O (stereo not drawn)
  -4, -7
CCOC(=O)c1cc(C2CC2)n(C2CCN(C(=O)Cc3ccc(OC)cc3)CC2)n1
  25, 17
O=S(=O)(Nc1ncn[nH]1)c1ccc(Cl)cc1
  2, 5
Cc1ccccc1C(C)(C)CNC(=O)N1CCC2(CCOCC2)C1
  -21, -20
Cc1cc(C)cc(-c2nnc(SCc3nc4ccccc4o3)o2)c1
  7, 0
CN=c1scc(-c2ccc(Br)cc2)n1N=Cc1ccccc1F
  4, -1
C#Cc1cccc(C(=O)N2CCCC(CCC(=O)NCc3ccccc3F)C2)c1 (stereo not drawn)
  3&4, 7&-1
